Assay outcomes (PubChem BioAssay)
KCNQ2 enhance – KCNQ2 (rat) channel potentiation; B-score at 10 µM; actives 0.54% (n = 310,000); CHO-K1 KCNQ2, FluxOR thallium flux fluorescence; hits give high values; O88943;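 active means fluorescence ratio B-score at least 3 SD of library B-scores, with initial fluorescence B-score within 3 SD, cut at about 5.3 in these data; same plate scores as AID 2156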;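 further: B-score of peak minus minimum over baseline fluorescence ratio after K+ and Tl+ stimulus; positive B-score means potentiation of KCNQ2 with more thallium influx and brighter signal; only the inactives scoring about 0 or higher are listed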
Target sequence (O88943 whole entry, looked up): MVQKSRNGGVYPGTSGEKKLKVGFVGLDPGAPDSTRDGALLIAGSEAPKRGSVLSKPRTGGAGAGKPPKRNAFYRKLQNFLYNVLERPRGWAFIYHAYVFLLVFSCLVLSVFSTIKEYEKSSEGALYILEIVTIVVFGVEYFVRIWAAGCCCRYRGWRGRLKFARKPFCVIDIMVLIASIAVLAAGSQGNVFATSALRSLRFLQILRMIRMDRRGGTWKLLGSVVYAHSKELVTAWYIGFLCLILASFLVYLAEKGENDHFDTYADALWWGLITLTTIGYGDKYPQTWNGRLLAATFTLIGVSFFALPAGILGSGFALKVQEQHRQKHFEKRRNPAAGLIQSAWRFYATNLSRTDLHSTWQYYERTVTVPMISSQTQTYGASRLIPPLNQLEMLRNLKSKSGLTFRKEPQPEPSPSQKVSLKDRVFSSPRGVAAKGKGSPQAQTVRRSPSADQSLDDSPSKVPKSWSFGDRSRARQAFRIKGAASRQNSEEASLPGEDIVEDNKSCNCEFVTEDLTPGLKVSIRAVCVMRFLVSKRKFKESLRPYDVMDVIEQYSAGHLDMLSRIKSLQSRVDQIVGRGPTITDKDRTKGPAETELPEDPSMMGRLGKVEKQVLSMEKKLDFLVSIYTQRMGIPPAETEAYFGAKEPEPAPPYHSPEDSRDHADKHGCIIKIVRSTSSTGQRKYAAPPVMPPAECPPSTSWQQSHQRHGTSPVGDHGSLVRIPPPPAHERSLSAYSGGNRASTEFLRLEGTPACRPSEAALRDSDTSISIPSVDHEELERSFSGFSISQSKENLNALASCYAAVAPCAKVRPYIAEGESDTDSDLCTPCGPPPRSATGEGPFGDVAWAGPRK
KCNQ2 enhance baseline – second read-out of KCNQ2 enhance, no call of its own (marks repeat the call); B-score; compound at 10 µM; measured here: initial fluorescence intensity artifact check;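 brightness before thallium and not channel activity; 0 = typical well and far values either way flag optical interference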
* = called active by the depositor. A portion of the library. The share of hits here may be higher or lower than overall.

SMILES	KCNQ2 enhance	KCNQ2 enhance baseline
O=C(Nc1ccc(Cl)cc1)N1CCOC12CCC1(CC2)OCCO1	0.22	0.01
O=C(NCC1CCCO1)[C@@H]1CSC2c3ccccc3C(=O)N21 (stereo not given in full)	0.06	-0.68
COc1ccc(CCNC(=O)Cc2cc(=O)[nH]c(=O)[nH]2)cc1OC	0.14	0.61
CCCN1CCN(C2CCCCC2NS(=O)(=O)c2ccc(Cl)cc2)CC1 (stereo not given)	0.82	-0.07
C/C(=N\NC(=O)c1nnn(-c2nonc2N)c1C)c1ccc(OCc2ccccc2)cc1	0.19	-0.49
COCCN(C(=O)COC(=O)c1cccnc1Cl)c1c(N)n(Cc2ccccc2)c(=O)[nH]c1=O	0.08	-0.04
CCCc1cc(=O)[nH]c2nnc(SCC(=O)Nc3ccc4c(c3)OCCO4)n12	0.25	0.67
Cn1nc(-c2ccc(Cl)cc2)cc1NC(=O)CC(C)(C)CC(=O)O	1.2	0.24
O=C(COc1ccc2ccccc2c1)NNC(=O)[C@@H]1CCCC[C@@H]1C(=O)O	0.39	0.08
Cc1ccc(/C=C/C(=O)NCc2cccs2)cc1	3.7	-1.6
COc1cc2[nH]cc(C(=O)NCc3cccs3)c(=O)c2cc1OC	2.3	-0.75
COc1cccc(NC(=O)Nc2nnc(-c3ccccc3SCc3ccccc3)s2)c1	0.08	-1.3
Cc1ccc2c(c1)C(=O)C(=O)N2CCCOc1ccccc1	0.35	0.68
COc1ccc(NC(=O)Cn2c(=O)c(C)nc3ccccc32)cc1Cl	0.01	-0.4
CCC1CCCCN1Cc1c(O)ccc2c(=O)c(-c3ccccc3)coc12 (stereo not given)	1.7	-0.87
COc1cc(/C=N/NC(=O)Cn2ccc(C(F)(F)F)n2)cc(OC)c1OC	0.62	-2.1
O=C(Nc1ccccc1NC(=O)c1ccc(F)cc1)c1ccc(F)cc1	1.2	0.01
CC1CN(C(=S)Nc2cccc(F)c2)CC(C)O1 (stereo not given)	1.7	-0.23
CCOc1cc(C(=O)Nc2c(C)ccc3nsnc23)cc(OCC)c1OCC	0.16	-0.5
CCCCn1c(SCC(=O)Nc2nnc(C)s2)nnc1-c1ccoc1C	0.89	0.78
O=C1C2CC=CCC2C(=O)N1c1ccc(N2CCN(c3ccccn3)CC2)c([N+](=O)[O-])c1 (stereo not given)	1.6	-1.2
Cc1ccc(-c2nnc(Nc3ccc(CC(N)=O)cc3)c3ccccc23)cc1S(N)(=O)=O	1.9	-0.43
OCCNc1cc(-n2nc(-c3ccccc3)cc2-c2ccccc2)ncn1	1.8	1.5
Cc1cccc(N2CCN(c3nnc(C(F)(F)F)s3)CC2)c1	0.97	-0.64

Structural class, the compounds so far containing an NH in an aromatic ring (4)
SMILES	KCNQ2 enhance	KCNQ2 enhance baseline
COc1ccc(CCNC(=O)Cc2cc(=O)[nH]c(=O)[nH]2)cc1OC	0.14	0.61
COCCN(C(=O)COC(=O)c1cccnc1Cl)c1c(N)n(Cc2ccccc2)c(=O)[nH]c1=O	0.08	-0.04
CCCc1cc(=O)[nH]c2nnc(SCC(=O)Nc3ccc4c(c3)OCCO4)n12	0.25	0.67
COc1cc2[nH]cc(C(=O)NCc3cccs3)c(=O)c2cc1OC	2.3	-0.75

(further entries)
SMILES	KCNQ2 enhance	KCNQ2 enhance baseline
CCn1ncc(C2=NOC(C(=O)Nc3c(C)nn(Cc4ccc(F)cc4)c3C)C2)c1C (stereo not given)	1.5	-1.5
CCNS(=O)(=O)c1ccc(S(=O)(=O)N(Cc2ccccn2)C2CCCCC2)cc1	0.32	0.16
COCCNC(=O)c1ccccc1NC(=O)c1ccccc1N(C)S(=O)(=O)c1ccc(C)cc1	0.02	1.2
O=C(C1CCCN(S(=O)(=O)c2cccs2)C1)N1CCc2ccccc2C1 (stereo not given)	0.36	0.24
COc1ccc(N/C(C)=C/C(=O)c2ccccc2)cc1	0.21	2.7
COc1ccc(/C=C(\NC(=O)c2ccc(OC)cc2)C(=O)Nc2ccccc2C(=O)O)cc1	1.2	-1.1
CC(C)OCCCNS(=O)(=O)c1ccc2c(c1)oc(=O)n2C	0.14	-0.48
O=C(Cn1nc(C(F)(F)F)c2c1CCCC2)Nc1ccc2c(c1)OCO2	0.63	3.9
Cc1ccc(C(C)C)c(OCC(=O)Nn2c(=O)[nH]c3ccccc3c2=O)c1	0.08	0.43
NS(=O)(=O)c1ccc(CCNC(=O)c2ccccc2Cc2ccccc2)cc1	0.04	-1.2
C/C(=N\OCC(=O)Nc1c(C)cc(C)cc1C)c1ccc2c(c1)OCCO2	8.1*	-0.06*
Cc1c(C(=O)CN2CCCC(C)(C)C2)c2ccccc2n1C	0.19	0.06

Part of the list above, with the structure last.
KCNQ2 enhance	KCNQ2 enhance baseline	SMILES
0.32	0.16	CCNS(=O)(=O)c1ccc(S(=O)(=O)N(Cc2ccccn2)C2CCCCC2)cc1
0.02	1.2	COCCNC(=O)c1ccccc1NC(=O)c1ccccc1N(C)S(=O)(=O)c1ccc(C)cc1
0.36	0.24	O=C(C1CCCN(S(=O)(=O)c2cccs2)C1)N1CCc2ccccc2C1 (stereo not given)
0.21	2.7	COc1ccc(N/C(C)=C/C(=O)c2ccccc2)cc1
1.2	-1.1	COc1ccc(/C=C(\NC(=O)c2ccc(OC)cc2)C(=O)Nc2ccccc2C(=O)O)cc1
0.14	-0.48	CC(C)OCCCNS(=O)(=O)c1ccc2c(c1)oc(=O)n2C

Going on with the list:
SMILES	KCNQ2 enhance	KCNQ2 enhance baseline
COc1ccc(N2CCN(C(=O)CNC(=O)c3ccc(Br)o3)CC2)cc1	0.14	0.38
Cc1nc(SCC(=O)NC(C)(C#N)C2CC2)c2c(-c3cccs3)csc2n1 (stereo not given)	0.16	-1.4
Cc1nn(CCc2nn[nH]n2)c2nc(C(F)(F)F)cc(C(F)(F)F)c12	0.44	1.7
O=[N+]([O-])c1ccc2nonc2c1Nc1cccc(F)c1	1.1	-0.35
CCCCN(C)Cc1c(O)ccc2c(-c3ccccc3)cc(=O)oc12	2.1	-0.18
O=C(COC(=O)C1(c2ccccc2F)CCCC1)N1CCOCC1	0.03	-2.3
CCCCOC(=O)c1ccc(NC(=O)COC(=O)CSc2nc(C)cc(C)n2)cc1	2.8	-0.16
COc1ccnc(N=CNOCc2ccc(C)cc2)c1C#N	1.2	-2
O=C(COC(=O)c1cc(=O)[nH]c2ccccc12)NC1CCCC1	0.97	0
CCOC(=O)C1=C(CS(=O)(=O)c2ccc(C)cc2)NC(=O)NC1c1cc(OC)c(OC)c(OC)c1 (stereo not given)	0.23	1.1
COc1ccc(CNCC(=O)Nc2cc(OC)cc(OC)c2)cc1	1.6	-0.05
COc1ccc(OC)c(Nc2cc(-c3ccccc3)nc(N)n2)c1	2.1	-1.1
CN1C(=O)CC(P(=O)(c2ccccc2)c2ccccc2)N(C)C1=O (stereo not given)	0.82	-0.58
CCOc1ccc(/C=C/C(=O)Nc2ccc(C(N)=O)cc2)cc1OC	0.02	0.04
c1ccc(-c2nn3nnnc3c3ccccc23)cc1	1.2	0.87
CCc1cc(C(=O)Cc2ccccn2)c(O)cc1O	0.08	1.5
COc1cccc(-c2nnc(-c3ccco3)o2)c1	0.76	0.27
Cc1cc(C)cc(NC(=O)N2CCc3ccccc3C2)c1	0.05	0.09
O=c1[nH]c(=O)n(Cc2ccco2)c2c1C(C(F)(F)F)(C(F)(F)F)N=C(Cc1ccccc1)N2	0.37	-0.96
CCOC(=O)c1ccc(NC(=O)C2CC3CCC2C3)cc1 (stereo not given)	1.3	-0.65
COc1cc(CN(C)c2ncnc3sccc23)ccc1OC(F)F	1.9	0.14
COc1ccccc1NC(=O)C1=C(C)NC(=O)NC1c1cccc(OC)c1OC (stereo not given)	0.1	-0.37
O=C(NCC1CCCO1)c1c(O)nc2sccn2c1=O (stereo not given)	0.31	0.75
COc1ccc(C2=NOC(C(=O)NCc3cccnc3)C2)cc1 (stereo not given)	1.1	0.17

No new results follow: an excerpt of the list.
SMILES	KCNQ2 enhance	KCNQ2 enhance baseline
O=C(Nc1ccc(Cl)cc1)N1CCOC12CCC1(CC2)OCCO1	0.22	0.01
O=C(NCC1CCCO1)[C@@H]1CSC2c3ccccc3C(=O)N21 (stereo not given in full)	0.06	-0.68
COc1ccc(CCNC(=O)Cc2cc(=O)[nH]c(=O)[nH]2)cc1OC	0.14	0.61

Other results follow:
SMILES	KCNQ2 enhance	KCNQ2 enhance baseline
Cc1cn(C(=O)c2cccc(Br)c2)c(C)n1	0.34	-1.9
CC1CCN(C(=O)CCNC(=O)c2ccccc2Cl)CC1	0.39	0.42
COc1cc(C(=O)NCC(=O)NCCN2C(=O)S/C(=C\c3ccc4c(c3)OCO4)C2=O)cc(OC)c1OC	2.1	-2.1
CCN(CC)C(=O)c1ccc(CS(=O)(=O)c2ccc(OC)cc2)o1	0.64	-0.35
Oc1ccccc1CN1CCN(C(c2ccccc2)c2ccccc2)CC1	0.3	-0.34
O=C(NCC1CCCO1)C1CCN(C2CCN(C(=O)CC3CCCC3)CC2)CC1 (stereo not given)	0.49	0.55
COc1cccc(C(=O)Nc2cccc(-c3nc4ncccc4o3)c2C)c1	2.5	-1.7
Cc1ccc(-c2nnc(SCC(=O)Nc3sc(C)c(C)c3C#N)n2C)cc1	0.67	-0.2
CCOc1ccc(C(=O)Nc2nc(C)c(C(=O)OC)s2)cc1	0.68	-0.06
O=C(c1nc2ncccn2n1)N1CCN(c2ccc(F)cc2)CC1	0.36	-0.14
C=CCNC(=O)CCC(=O)NNc1nc2ccccc2c2nc(-c3ccccc3)nn12	0.85	0.31
NC(=O)Nc1ccc(Oc2ncc(C(F)(F)F)cc2Cl)cc1	1.6	0.82
CN(C(=O)COn1nnc2ccc(S(=O)(=O)N3CCOCC3)cc21)c1ccccc1	0.23	-0.93
CCCCCn1c(CN2CCCCC2C)nc2c1c(=O)n(C)c(=O)n2C (stereo not given)	1.2	-1.5
CC(C)C1C2=C(CC(C)(C)CC2=O)ON1c1ccccc1 (stereo not given)	0.02	0.53
O=C(Nn1nnnc1Nc1ccccc1)C12CC3CC(CC(C3)C1)C2	1.6	-0.04
O=C(/C=C/c1cccs1)Nc1ccncc1	2.9	-0.27
CCCCNC(=O)Nc1cc(C(=O)OC)ccc1C	0.68	-0.94
CCc1cc(=O)[nH]c(-n2[nH]c(-c3ccccc3)cc2=O)n1	1.6	-1.7
O=[N+]([O-])c1ccc(S(=O)(=O)NCC2CC3CCC2C3)cc1 (stereo not given)	0.81	-0.26
N#CC(C#N)=Cc1cnc(N2CCN(c3ccccc3)CC2)s1	0.36	-1.8
Cc1cc(/C=C2\C(=N)N3C(SCc4ccccc4)=NSC3=NC2=O)c(C)n1Cc1ccccc1	0.44	0.49
CCCCC1CCC(/C(N)=N/O)CC1 (stereo not given)	0.46	2.8
CC(C)(C)C1CCc2c(sc3ncn(N)c(=N)c23)C1 (stereo not given)	5	-0.47
CCN1CCN(C(=S)Nc2cc(S(=O)(=O)N(CC)CC)ccc2C)CC1	1.4	0.39
O=C(Nc1ccnn1C1CCN(C(=O)Cc2ccccc2F)CC1)C1CC1	1.6	1.3
Cc1cc(C)nc(Nc2nc3ccccc3s2)n1	2.1	-0.46
CCc1nnc(NC(=O)CSc2nnc(-c3ccccc3O)o2)s1	0.4	1.1
Cc1ccc(C(=O)NC2CCN(CCCC(=O)c3ccc(F)cc3)CC2)cc1	0.83	-0.6
Cc1nc(-c2cccc(NC(=O)C3CCCCC3)c2)cs1	3.3	0.08
Cc1cc2cc(CCNC(=O)C(C)C)c(=O)[nH]c2cc1C	0.18	-0.95
O=C(CSc1nc2sc3c(c2c(=O)n1-c1ccccc1)CCCC3)N/N=C/c1ccc(C(=O)O)cc1	1.1	0.02
CC(C)CC(NC(N)=O)C(=O)Nc1ccc2c(c1)OCO2 (stereo not given)	1.2	-0.68
CCOc1ccc(S(=O)(=O)NCc2ccncc2)cc1NC(=O)c1ccccc1	0.82	0.13
Cc1cccc(NC(=S)N2CCC(NC(=O)C3CCCCC3)CC2)c1	2.3	-0.62
O=C(COC(=O)c1cc(=O)[nH]c(=O)[nH]1)Nc1cccc(S(=O)(=O)N2CCOCC2)c1	0.03	-0.13
Cc1onc(-c2ccccc2Cl)c1C(=O)NCCCc1ccccc1	0.58	-0.25
Oc1ccc(Cl)cc1C1=NCCNC(C(F)(F)C(F)F)=C1	0.62	1.9
CCOC(=O)c1cnc2nc(NCc3ccc(OC)c(OC)c3)[nH]n2c1=O	0.94	-1.3
COc1ccccc1N1CCN(C(=O)c2c(C)cc(=O)oc2C)CC1	0.41	-1.7
N#CCCn1c(SCC(=O)c2c[nH]c3ccccc23)nc2ccccc21	0.03	-0.7
C/C(=N/N1CCN(Cc2cccc3ccccc23)CC1)c1cccnc1	0.02	-0.31
O=C(CCS(=O)(=O)c1ccc2c(c1)NC(=O)CS2)NCCc1ccccc1	0.74	-0.4
O=C(C[n+]1cc2ccccc2c2ccccc21)c1ccccc1	0.02	-0.57
Cc1ccc(C(=O)NC2CCCCCC2)cc1N1CCCC1=O	1	-0.68
COC(=O)CSC(C)C(=O)Nc1nnc(C(C)C)s1 (stereo not given)	0.95	1
Cc1ccc(C(=O)c2cncc(Br)c2)cc1	1.7	-1.4
CCOc1ccc(NC(=O)CSC(N)=O)cc1	1.2	6.1
Cc1[nH]ncc1-c1nc2ccccc2[nH]1	0.02	-0.74
COc1ccc(NC(=O)c2ccco2)cc1NC(=O)c1ccc(C)cc1	1.5	-1
COCCNC(=O)c1ccc2c(c1)ncn2-c1ccc(C)c(Cl)c1	0.43	-0.76
Cc1ccc(CN(C(=O)CNC(=O)c2cccs2)C(C(=O)NCC2CCCO2)c2ccccc2)cc1 (stereo not given)	1.4	-1.2
FC(F)Sc1ccc(NC(=S)NCC2CCCCC2)cc1	2.5	-1.1
COc1cc(CNc2cccc(F)c2)cc(Br)c1O	11*	-0.07*
CCn1cnc2c1c(=O)n(CC(=O)NCc1ccccc1)c(=O)n2Cc1ccccc1	1.5	-2
CC(/C=N/NC(=O)c1cc(-c2cccn2C)n[nH]1)=C\c1ccccc1	1.8	0.13
COc1ccc(CCN(C)C(=O)CSc2nnc(C3CC3)n2N)cc1OC	0.49	-2.5
COc1ccc(/C=C2/C(=O)N(c3nc4ccccc4s3)N=C2CSc2ccc(Cl)cc2)cc1	0.18	-0.89
